Ran FRET – inhibitors of Ran–importin-beta complex formation, primary screen, biochemical, CFP-Ran/YFP-importin-beta FRET, RCC1, cell-free (AID 434961). 0.2% of 7,700 active. CFP-Ran/YFP-importin-beta FRET, cell-free; active compounds read high. inhibition, %;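 active means more than half of the replicate wells above 15% inhibition; inconclusive means exactly half above it; inactive means fewer than half above it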;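 further: 0% = DMSO wells and 100% inhibition = RanGDP control wells on each plate; stock of unstated strength diluted about 400-fold; mean of two wells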
* = called active by the depositor; u = inconclusive. Only part of the results is shown; count on the stated rates, not on these rows.

molecule | Ran FRET
C[C@@H]1CN([C@@H](C)CO)C(=O)c2cc(NC(=O)Nc3ccc(C(F)(F)F)cc3)ccc2O[C@@H]1CN(C)C(=O)NC1CCCCC1 | 4.4
Cc1noc(C)c1NC(=O)N(C)C[C@@H]1OCc2cn(nn2)CCCC(=O)N([C@@H](C)CO)C[C@@H]1C | -1.0
C[C@H](CO)N1C[C@H](C)[C@H](CN(C)C(=O)c2ccccc2)OCCCC[C@H](C)Oc2ccc(NC(=O)Nc3ccc(F)cc3)cc2C1=O | -1.7
C[C@@H]1CN([C@@H](C)CO)C(=O)c2cc(NC(=O)NC3CCCCC3)ccc2O[C@@H]1CN(C)S(=O)(=O)c1ccccc1 | 5.3
C[C@H](CO)N1C[C@H](C)[C@H](CN(C)C(=O)Nc2ccc(C(F)(F)F)cc2)Oc2ccc(NC(=O)C3CC3)cc2CC1=O | 4.2
COc1ccc(S(=O)(=O)N(C)C[C@H]2Oc3ccc(NC(=O)Nc4c(C)noc4C)cc3C(=O)N([C@H](C)CO)C[C@@H]2C)cc1 | -0.9
C[C@@H]1CCCCO[C@H](CN(C)C(=O)C2CCCCC2)[C@@H](C)CN([C@@H](C)CO)C(=O)c2cc(NC(=O)c3ccncc3)ccc2O1 | 0.7
C[C@@H]1CN([C@H](C)CO)C(=O)CCCn2nncc2CO[C@H]1CN(C)S(=O)(=O)c1ccc(Cl)cc1 | -0.9
C[C@H]1CCCCO[C@@H](CN(C)Cc2ccc(C(=O)O)cc2)[C@@H](C)CN([C@@H](C)CO)C(=O)c2cc(NS(C)(=O)=O)ccc2O1 | 6.9
C[C@H](CO)N1C[C@H](C)[C@H](CN(C)C(=O)Nc2cccc3ccccc23)Oc2c(NC(=O)NC3CCCCC3)cccc2C1=O | 1.5
C[C@@H]1CN([C@@H](C)CO)C(=O)c2cccc(NC(=O)C3CCOCC3)c2O[C@@H]1CN(C)Cc1ccc(Oc2ccccc2)cc1 | -2.3
C[C@H](CO)N1C[C@H](C)[C@H](CN(C)C)OCCCC[C@H](C)Oc2ccc(NS(C)(=O)=O)cc2C1=O | 2.8
C[C@@H]1CN([C@H](C)CO)C(=O)Cc2cc(NC(=O)Cc3ccccc3)ccc2O[C@@H]1CN(C)Cc1ccc(C(F)(F)F)cc1 | 3.6
C[C@@H]1CN([C@H](C)CO)C(=O)Cc2cc(NC(=O)NC3CCCCC3)ccc2O[C@@H]1CN(C)S(=O)(=O)c1ccccc1 | u
C[C@@H]1CN([C@@H](C)CO)C(=O)CCCn2cc(nn2)CO[C@H]1CN(C)S(=O)(=O)c1cccs1 | 0.9
COc1ccc(CN(C)C[C@H]2Oc3ccc(NC(=O)CCC(F)(F)F)cc3C(=O)N([C@H](C)CO)C[C@H]2C)cc1 | 0.0
C[C@@H]1CN([C@H](C)CO)C(=O)c2cc(NS(=O)(=O)c3cccs3)ccc2O[C@@H]1CN(C)C(=O)Nc1ccc(F)cc1 | 1.4
C[C@@H]1CN([C@H](C)CO)C(=O)Cc2cc(NC(=O)Cc3ccccc3)ccc2O[C@H]1CN(C)C(=O)NC1CCCCC1 | -2.2
C[C@H]1CCCCO[C@H](CN(C)C(=O)CCC(F)(F)F)[C@@H](C)CN([C@@H](C)CO)C(=O)c2cc(NC(=O)c3ccncc3)ccc2O1 | -3.6
C[C@H](CO)N1C[C@H](C)[C@@H](CN(C)S(=O)(=O)c2cn(C)cn2)Oc2c(NC(=O)C3CCOCC3)cccc2C1=O | -0.6
C[C@@H]1CCCCO[C@@H](CN(C)S(=O)(=O)c2cn(C)cn2)[C@H](C)CN([C@H](C)CO)C(=O)c2cc(NS(=O)(=O)c3cn(C)cn3)ccc2O1 | -0.9
C[C@H](CO)N1C[C@H](C)[C@@H](CN(C)C(=O)Nc2ccccc2)Oc2c(NS(C)(=O)=O)cccc2C1=O | -8.0
C[C@@H]1CCCCO[C@@H](CN(C)C(=O)Cc2ccccc2)[C@H](C)CN([C@H](C)CO)C(=O)c2cc(NS(C)(=O)=O)ccc2O1 | 2.3
C[C@@H]1CN([C@H](C)CO)C(=O)c2cccc(N(C)C)c2O[C@@H]1CN(C)Cc1ccc(C(=O)O)cc1 | -2.0
C[C@@H]1CN([C@@H](C)CO)C(=O)Cc2cc(NC(=O)Cn3cnnn3)ccc2O[C@@H]1CN(C)C | -3.1
C[C@@H]1CN([C@@H](C)CO)C(=O)Cc2cc(NS(=O)(=O)c3cccs3)ccc2O[C@@H]1CN(C)C(=O)Nc1ccc(F)cc1 | 0.0
C[C@H]1CN([C@@H](C)CO)C(=O)Cc2cc(NC(=O)NC3CCCCC3)ccc2O[C@H]1CN(C)S(=O)(=O)c1ccc(Cl)cc1 | u
CC(C)NC(=O)N(C)C[C@@H]1Oc2c(NC(=O)C3CCOCC3)cccc2C(=O)N([C@@H](C)CO)C[C@H]1C | 3.8
C[C@H]1CN([C@@H](C)CO)C(=O)c2cc(N(C)C)ccc2O[C@H]1CN(C)Cc1ccncc1 | -4.0
C[C@@H]1CCCCO[C@@H](CN(C)C)[C@@H](C)CN([C@H](C)CO)C(=O)c2cc(NC(=O)CCCN(C)C)ccc2O1 | -0.9
Cc1noc(C)c1S(=O)(=O)Nc1ccc2c(c1)C(=O)N([C@H](C)CO)C[C@H](C)[C@@H](CN(C)C(=O)c1ccncc1)OCCCC[C@H](C)O2 | 6.5
C[C@@H]1CCCCO[C@@H](CN(C)C(=O)Nc2ccccc2)[C@@H](C)CN([C@H](C)CO)C(=O)c2cc(N(C)C)ccc2O1 | -1.6
Cc1noc(C)c1NC(=O)N(C)C[C@H]1OCCCC[C@H](C)Oc2ccc(NS(=O)(=O)c3cccs3)cc2C(=O)N([C@@H](C)CO)C[C@@H]1C | 0.9
COc1ccc(CN(C)C[C@H]2Oc3c(NC(=O)c4cc(C)nn4C)cccc3C(=O)N([C@H](C)CO)C[C@@H]2C)cc1 | -3.7
C[C@H]1CN([C@@H](C)CO)C(=O)c2cccc(NC(=O)C3CCOCC3)c2O[C@H]1CN(C)S(=O)(=O)c1cn(C)cn1 | 2.6
CNC[C@H]1OCCCC[C@@H](C)Oc2ccc(NC(=O)Nc3cccc4ccccc34)cc2C(=O)N([C@@H](C)CO)C[C@H]1C | -0.1

Rewritten field by field: part of the list above.
C[C@H](CO)N1C[C@H](C)[C@@H](CN(C)C(=O)Nc2ccccc2)Oc2c(NS(C)(=O)=O)cccc2C1=O
  Ran FRET: -8.0

C[C@H](CO)N1C[C@H](C)[C@H](CN(C)C(=O)Nc2ccc(C(F)(F)F)cc2)Oc2ccc(NC(=O)C3CC3)cc2CC1=O
  Ran FRET: 4.2

C[C@H](CO)N1C[C@H](C)[C@H](CN(C)C(=O)c2ccccc2)OCCCC[C@H](C)Oc2ccc(NC(=O)Nc3ccc(F)cc3)cc2C1=O
  Ran FRET: -1.7

C[C@@H]1CN([C@@H](C)CO)C(=O)c2cccc(NC(=O)C3CCOCC3)c2O[C@@H]1CN(C)Cc1ccc(Oc2ccccc2)cc1
  Ran FRET: -2.3

New compounds follow
molecule | Ran FRET
C[C@@H]1CCCCO[C@H](CN(C)C)[C@H](C)CN([C@H](C)CO)C(=O)c2cc(NC(=O)Nc3ccc4c(c3)OCO4)ccc2O1 | 7.5
COc1ccc(CN(C)C[C@@H]2Oc3c(NC(=O)Nc4ccc(OC)cc4)cccc3C(=O)N([C@H](C)CO)C[C@@H]2C)cc1 | 4.4
C[C@@H]1CCCCO[C@@H](CN(C)C(=O)Nc2ccccc2)[C@H](C)CN([C@@H](C)CO)C(=O)c2cc(NC(=O)c3ccccc3)ccc2O1 | -2.2
COc1ccc(S(=O)(=O)N(C)C[C@H]2Oc3c(NC(=O)Nc4c(C)noc4C)cccc3C(=O)N([C@@H](C)CO)C[C@@H]2C)cc1 | -2.4
C[C@H](CO)N1C[C@H](C)[C@H](CN(C)C(=O)Nc2cccc3ccccc23)Oc2ccc(NS(=O)(=O)c3cccs3)cc2CC1=O | 2.4
C[C@H](CO)N1C[C@H](C)[C@H](CN(C)C(=O)Nc2ccnc(N3CCOCC3)c2)OCc2cn(nn2)CCCC1=O | -3.2
C[C@@H]1CN([C@@H](C)CO)C(=O)c2cc(NS(=O)(=O)c3ccccc3)ccc2O[C@H]1CN(C)C(=O)Nc1ccc(C(F)(F)F)cc1 | -2.4
Cc1noc(C)c1S(=O)(=O)Nc1ccc2c(c1)C(=O)N([C@@H](C)CO)C[C@@H](C)[C@@H](CN(C)C)OCCCC[C@H](C)O2 | -3.1
C[C@@H]1CN([C@@H](C)CO)C(=O)c2cccc(NC(=O)c3ccncc3)c2O[C@H]1CN(C)Cc1ccc(C(=O)O)cc1 | 3.9
CNC[C@H]1Oc2ccc(NC(=O)c3ccncc3)cc2C(=O)N([C@H](C)CO)C[C@@H]1C | 8.6
Cc1noc(C)c1S(=O)(=O)Nc1cccc2c1O[C@@H](CN(C)S(=O)(=O)c1cn(C)cn1)[C@@H](C)CN([C@@H](C)CO)C2=O | -4.2
C[C@@H]1CCCCO[C@@H](CN(C)C(=O)Nc2ccc3c(c2)OCO3)[C@H](C)CN([C@H](C)CO)C(=O)c2cc(NS(C)(=O)=O)ccc2O1 | 2.2
C[C@@H]1CCCCO[C@H](CN(C)C(=O)CCC(F)(F)F)[C@H](C)CN([C@H](C)CO)C(=O)c2cc(N(C)C)ccc2O1 | u
C[C@@H]1CCCCO[C@H](CN(C)S(=O)(=O)c2cn(C)cn2)[C@@H](C)CN([C@@H](C)CO)C(=O)c2cc(NC(=O)c3ccccc3)ccc2O1 | -4.3
C[C@H](CO)N1C[C@H](C)[C@H](CN(C)Cc2ccc3c(c2)OCO3)Oc2ccc(NC(=O)CCC(F)(F)F)cc2CC1=O | 0.9
CC(C)NC(=O)N(C)C[C@@H]1OCCCC[C@@H](C)Oc2ccc(NC(=O)CCCN(C)C)cc2C(=O)N([C@H](C)CO)C[C@H]1C | -7.5
C[C@@H]1CN([C@H](C)CO)C(=O)Cc2cc(NS(=O)(=O)c3cccs3)ccc2O[C@H]1CN(C)S(=O)(=O)c1ccccc1 | 1.2
Cc1noc(C)c1NC(=O)Nc1ccc2c(c1)C(=O)N([C@H](C)CO)C[C@H](C)[C@@H](CN(C)C(=O)Nc1c(C)noc1C)OCCCC[C@@H](C)O2 | 0.1
Cc1noc(C)c1NC(=O)N(C)C[C@@H]1Oc2c(NS(=O)(=O)c3cn(C)cn3)cccc2C(=O)N([C@@H](C)CO)C[C@@H]1C | 3.0
C[C@H]1CCCCO[C@@H](CN(C)C(=O)c2ccccc2)[C@@H](C)CN([C@@H](C)CO)C(=O)c2cc(NS(C)(=O)=O)ccc2O1 | 3.1
C[C@@H]1CN([C@H](C)CO)C(=O)c2cc(N(C)C)ccc2O[C@H]1CN(C)Cc1ccncc1 | -3.2
CCCN(C)C[C@@H]1Oc2ncc(-c3cc4ccccc4o3)cc2C(=O)N([C@H](C)CO)C[C@@H]1C | -4.3
C[C@H](CO)N1C[C@H](C)[C@H](CN(C)C)Oc2ncc(-c3ccc(F)cc3)cc2C1=O | 3.0
C[C@H]1CN([C@@H](C)CO)C(=O)c2cc(NC(=O)Nc3ccc4c(c3)OCO4)ccc2O[C@@H]1CN(C)C(=O)Nc1ccc2c(c1)OCO2 | -3.3
C[C@H](CO)N1C[C@H](C)[C@@H](CN(C)S(=O)(=O)c2cccs2)Oc2ccc(NC(=O)C3CC3)cc2CC1=O | u
C[C@@H]1CN([C@@H](C)CO)C(=O)Cc2cc(NS(=O)(=O)c3cn(C)cn3)ccc2O[C@@H]1CN(C)Cc1ccc(C(F)(F)F)cc1 | -0.4
C[C@H]1CN([C@@H](C)CO)C(=O)CCCn2nncc2CO[C@@H]1CN(C)Cc1ccccc1 | -3.1
CC(C)NC(=O)N(C)C[C@@H]1OCCCC[C@@H](C)Oc2ccc(NC(=O)Nc3ccc(F)cc3)cc2C(=O)N([C@H](C)CO)C[C@@H]1C | -2.1
Cc1noc(C)c1NC(=O)Nc1ccc2c(c1)C(=O)N([C@@H](C)CO)C[C@@H](C)[C@H](CN(C)C(=O)CCCN(C)C)OCCCC[C@@H](C)O2 | 1.7
C[C@H]1CN([C@@H](C)CO)C(=O)c2cc(NC(=O)NC3CCCCC3)ccc2O[C@@H]1CN(C)C(=O)Nc1cccc2ccccc12 | -3.4
C[C@H]1CN([C@@H](C)CO)C(=O)c2cccc(NC(=O)c3ccncc3)c2O[C@@H]1CN(C)CC1CC1 | 6.2
CNC[C@@H]1Oc2ccc(NC(=O)Cc3cn(C)c4ccccc34)cc2CC(=O)N([C@@H](C)CO)C[C@H]1C | 1.2
C[C@H](CO)N1C[C@H](C)[C@H](CN(C)C(=O)NC2CCCCC2)Oc2ncc(C#Cc3ccc(F)cc3)cc2C1=O | 2.7
COc1ccc(CN(C)C[C@@H]2Oc3ccc(NC(=O)C4CC4)cc3CC(=O)N([C@@H](C)CO)C[C@@H]2C)cc1 | -3.6
C[C@H]1CN([C@@H](C)CO)C(=O)Cc2cc(NC(=O)CCC(F)(F)F)ccc2O[C@@H]1CN(C)C(=O)Nc1cccc2ccccc12 | 0.1
C[C@@H]1CN([C@@H](C)CO)C(=O)c2cc(NC(=O)c3ccncc3)ccc2O[C@H]1CN(C)C | -0.7
C[C@H]1CN([C@@H](C)CO)C(=O)c2cccc(NC(=O)c3ccncc3)c2O[C@@H]1CN(C)S(=O)(=O)c1ccc(F)cc1 | -0.2
C[C@@H]1CN([C@H](C)CO)C(=O)c2cccc(NC(=O)NC3CCCCC3)c2O[C@@H]1CN(C)C(=O)NC1CCCCC1 | -3.1
C[C@H]1CN([C@@H](C)CO)C(=O)c2cccc(NS(=O)(=O)c3ccc(Cl)cc3)c2O[C@H]1CN(C)S(=O)(=O)c1cn(C)cn1 | -0.9
